VDR inh = Inhibitors of the vitamin D receptor (VDR): qHTS; AID 504847, 2011; VDR-SRC2-3 peptide fluorescence polarization, 2 h; Potency, µM, for the others: max response, negative = inhibition, most hits filed as inhibitors; Vitamin D3 receptor (Homo sapiens), P11473; hit rate 0.93% among 400,000; active = well fitted inhibition curve with a large enough effect; inconclusive = small, poorly fitted or top-dose-only effect, or another doubt; inactive = no such curve, though single readings can be large or run the other way; note: series mostly up to about 120 µM
Target sequence (P11473 whole entry, looked up): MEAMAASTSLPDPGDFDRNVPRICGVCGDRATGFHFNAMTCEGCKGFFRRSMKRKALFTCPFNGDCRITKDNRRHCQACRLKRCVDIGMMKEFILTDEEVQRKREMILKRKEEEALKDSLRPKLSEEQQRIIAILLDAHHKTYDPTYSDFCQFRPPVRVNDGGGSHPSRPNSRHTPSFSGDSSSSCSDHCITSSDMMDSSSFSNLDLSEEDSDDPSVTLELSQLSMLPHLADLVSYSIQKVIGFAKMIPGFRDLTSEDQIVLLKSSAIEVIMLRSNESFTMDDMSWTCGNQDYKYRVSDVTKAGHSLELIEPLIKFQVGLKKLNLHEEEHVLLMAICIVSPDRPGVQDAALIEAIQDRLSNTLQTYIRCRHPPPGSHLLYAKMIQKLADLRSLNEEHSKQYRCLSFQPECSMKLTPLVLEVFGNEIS
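Inhibition of the VDR/SRC2-3 peptide interaction is quantified by fluorescence polarization. Compounds (23 nl, pintool) incubate with the reagents for 2 hours at ambient room temperature.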
Starred values were filed as active, the others as inactive; u = inconclusive; & = joins results of further samples; [ ] = dose if it differs, or a comment. % is set by controls: 0 for no effect and ±100 for the full control effect; potency is the fitted concentration of half-maximal effect. These rows are one share of the data (hit frequency here may not be typical).

A first look, 3 compounds:
SMILES | VDR inh
Nc1c(C(=O)O)cnn1-c1ccc([N+](=O)[O-])cc1 | 0%
COC(=O)C1=NN(c2ccc(C)cc2)C2(S1)SC(C(C)=O)=C(C)N2c1ccccc1 (centres undefined) | -1%
O=C(O)CC(=O)Nc1ccccc1 | 11%

The whole of this part, from the first entry:
SMILES | VDR inh
Nc1c(C(=O)O)cnn1-c1ccc([N+](=O)[O-])cc1 | 0%
COC(=O)C1=NN(c2ccc(C)cc2)C2(S1)SC(C(C)=O)=C(C)N2c1ccccc1 (centres undefined) | -1%
O=C(O)CC(=O)Nc1ccccc1 | 11%
C=C(C)Cn1c(-c2ccncc2)n[nH]c1=S | -3%
CC(C)c1ccc(NC(=O)CSc2nc3ccsc3c(=O)n2CCC(=O)O)cc1 | 0%
O=C(Nc1ccc(N2CCCCC2)c(Cl)c1)c1ccc2c(c1)OCCO2 | 1%
COC(=O)C1=C(C)[C@@H](O)[C@@H](C)[C@](C)(c2cc(OC)c(C)c(OC)c2COc2ccccc2)O1 | -9%
CSc1ncccc1C(=O)NNC(=O)c1ccc(NS(=O)(=O)c2cccs2)cc1 | -1%
CS(=O)(=O)NCc1ccc(C(=O)NCCOc2ccccc2)cc1 | 8%
CC1CC(C)(C)NC(=S)N1CC(=O)N1CCN(Cc2ccc3c(c2)OCO3)CC1 (centres undefined) | 2%
O=C(/C=C\Nc1ccccn1)c1ccccc1 | -6%
CCn1c(COc2ccc(C)cc2)nnc1SCC(=O)Nc1cc(OC)ccc1OC | 3%
Cc1cc(NC(=O)Nc2ccc(Cl)cc2)n(C(C)(C)C)n1 | 1%
CC(C)Oc1ccccc1OCCN(C)C | -10%
CCCCNC(=S)N(C)/N=C/c1ccc(OCc2ccc(C(=O)OC)cc2)c(OC)c1 | -12%
O=C(NN1CCCCCC1)c1ccccc1F | -5%
COc1ccccc1C(CNC(=O)CNC(=O)c1cccc(Cl)c1)N1CCCC1 (centres undefined) | -18%
Cc1[nH]c2ccccc2c1C(=O)CN1CCC2(CC1)OCCO2 | -5%
CN(C)/C=C(/C(=O)c1ccc(F)cc1)S(=O)(=O)c1ccc(F)cc1 | 2%
CCN(CC(=O)Nc1ccc(NC(C)=O)cc1)C(=O)c1cc(S(=O)(=O)N2CCCCCC2)ccc1OC | -2%
O=C(Nc1ccc([N+](=O)[O-])cc1)c1cc(-c2ccccn2)nc2c(Cl)cccc12 | -7%
COc1ccc(-c2ccc3c(c2)S(=O)(=O)c2cccc(C(=O)N4CCN(c5ccc(Cl)cn5)CC4)c2C3=O)cc1OC | 14%
Cc1cc(NC(=O)CSc2ccc3nnc(-c4ccccc4)n3n2)no1 | 3%
Nc1nc(-c2ccccc2)c(-c2ccccc2)n1N | 33%[activator]
CCn1c(SCC(=O)Nc2ccc(OCc3ccccc3)cc2)nnc1-c1ccco1 | -9%

Carrying on.
SMILES | VDR inh
COc1ccc(CCNC(=O)c2cnn(-c3ccc(F)cc3)c2C2CCN(C(=O)OC(C)(C)C)CC2)c(OC)c1 | -2%
COc1ccc(CN2CCN(CC(O)Cn3c4ccccc4c4ccccc43)CC2)cc1 (centres undefined) | 17%
O=C(CNC(=O)c1ccc(Br)o1)NCC1CCCCC1 | -3%
COc1ccc(C2=NOC(C(=O)NC(C)(C)C)C2)cc1 (centres undefined) | 16%
Cc1ccccc1C(=O)NC1CC2CCCC(C1)N2Cc1ccc(Cl)cc1 (centres undefined) | -24%
Cn1nccc1C(=O)Nn1cnnc1 | 7%
COc1ccc(C(=O)Nn2cnnc2)c(OC)c1 | 4%
COc1cccc(CN2CC(C(=O)NC3(c4ccccc4)CC3)CCC2=O)c1 (centres undefined) | -6%
O=C(O)c1cnn2c1NC(c1ccc(F)cc1)CC2C(F)(F)F (centres undefined) | -11%
CCN1CCN(C(=O)CCc2nc3ccccc3c(=O)[nH]2)CC1 | -5%
O=S(=O)(Nc1cccc(-c2cn3cccnc3n2)c1)c1ccc(-c2ccccc2)cc1 | 29%
O=C(COC(=O)c1cccnc1Cl)NCC1CCCO1 (centres undefined) | -5%
Cc1cc(C)c2c(=O)cc(CSc3nnc(-c4ccccc4)n3C)[nH]c2c1 | 9%
C/C(=N\NC(=O)c1ccc(N/N=C(\C)c2ccc(O)cc2)cc1)c1ccc(O)cc1 | 0%
COc1ccc([C@H]2CC(=O)C=C(C#CC(C)(C)C)C2)cc1 | u
O=C(NCCN1CCOCC1)c1cc(-c2cccs2)nc2ccccc12 | 7%
Cc1ccc(-n2nc(C(=O)N3CCN(c4ccc(F)cc4)CC3)c(=O)n(C)c2=O)cc1 | 8%
COC(=O)c1cc(OC)c(OC)cc1NC(=S)N1CCCCC1 | -1%
CCn1c(C)c(CS(=O)(=O)c2ccccc2)[nH]c1=O | u
Cc1ccccc1Cn1c(O)c(N=NC(=S)Nc2ccccc2F)c2ccccc21 | 14%
CC(C)NC(=O)NS(=O)(=O)c1cnccc1NC1CC2CCC1C2 (centres undefined) | 10%
Cc1cc(NC(=O)CSc2nnc(-c3ccco3)n2Cc2ccccc2)no1 | -7%
COc1cccc(CNC(=O)CSc2ccc(-c3ccccn3)nn2)c1 | 10%
Cc1cccc(CCNC(=O)C2CCC(=O)N2Cc2ccc(F)cc2)c1 (centres undefined) | -11%
COC(=O)CSc1nnc(SCc2ccc(Cl)cc2)s1 | 10%

The last seven compounds of the part above come first, to join the parts.
SMILES | VDR inh
CCn1c(C)c(CS(=O)(=O)c2ccccc2)[nH]c1=O | u
Cc1ccccc1Cn1c(O)c(N=NC(=S)Nc2ccccc2F)c2ccccc21 | 14%
CC(C)NC(=O)NS(=O)(=O)c1cnccc1NC1CC2CCC1C2 (centres undefined) | 10%
Cc1cc(NC(=O)CSc2nnc(-c3ccco3)n2Cc2ccccc2)no1 | -7%
COc1cccc(CNC(=O)CSc2ccc(-c3ccccn3)nn2)c1 | 10%
Cc1cccc(CCNC(=O)C2CCC(=O)N2Cc2ccc(F)cc2)c1 (centres undefined) | -11%
COC(=O)CSc1nnc(SCc2ccc(Cl)cc2)s1 | 10%
CCC(C(=O)NCc1ccncc1)c1ccccc1 (centres undefined) | 16%
COc1ccc(NC(=O)C2CCN(S(=O)(=O)c3ccc(N4CCCC4=O)cc3)CC2)c(OC)c1 | 5%
CCC1CCCCN1C(=O)COc1cc(=O)n(C)c2ccccc12 (centres undefined) | 2%
COc1ccc(OC)c(C2CC(=O)Nc3c2c(=O)[nH]c2nc4ccccc4n32)c1 (centres undefined) | -7%
O=C(O)c1ccc(CSCc2ccccc2F)o1 | -17%
Cn1cc(-c2nc3cnc(N4CCNCC4)nc3n(CCc3ccccc3)c2=O)c2ccccc21 | -14%
O=C(NCCc1c[nH]c2ccccc12)c1cc(S(=O)(=O)N2CCCCC2)ccc1N1CCOCC1 | -9%
CN(C)S(=O)(=O)c1ccc(N2CCCC2)c(C(=O)NCCc2ccc(F)cc2)c1 | -12%
COc1cc(C(=O)NC2CC3CCCC(C2)N3CC(=O)Nc2ccccc2)cc(OC)c1OC (centres undefined) | -10%
Cn1c(SCC(=O)NCc2ccco2)nc2ccccc2c1=O | -1%
NC(=O)c1ccccc1OCC(=O)N1CCC(Cc2ccccc2)CC1 | 12%
Cc1cc(S(=O)(=O)N2CCCC2)ccc1OCC(=O)NCc1ccccn1 | 8%
O=c1c2c3c(sc2n(Cc2cc(=O)n4ccccc4n2)c(=O)n1-c1ccccc1)CCC3 | -20%
C=CC[C@H](CC(=O)NCCO)C(=O)N[C@H](COC(=O)[C@H](CC=C)CC(=O)OC(C)(C)C)c1ccccc1 | -13%
COc1cc(OC)c2c(-c3cccc(-c4ccc(OC(F)(F)F)cc4)c3)cc(=O)oc2c1 | -11%&1%
Cc1ccc(S(=O)(=O)NCCCCCC(=O)N(C)C)cc1 | -8%
CC(=O)c1ccc([C@@H]2C[C@]34CN(Cc5cccc(C(F)(F)F)c5)S(=O)(=O)[C@H]3C[C@H]2O4)cc1 | -15%
S=c1nc(-c2ccccc2Cl)[nH][nH]1 | -16%
COc1ccc(/C=C2\SC(=O)N(CC(=O)Nc3cccnc3)C2=O)cc1OC | 2%
CCOC(=O)C1C(=O)NC(C(=O)OCC)(C(=O)OCC)C1C(C)CC (centres undefined) | -19%
CC(=O)NC1C(c2nc3ccccc3s2)=C(c2ccccc2)C(=O)N1c1ccc(C)cc1 (centres undefined) | -23%
O=C(Cn1cnc2c(OCc3ccccc3)ncnc21)N1CCN(c2ccccn2)CC1 | 10%
COC(=O)c1c(NC(=O)c2cccc(S(=O)(=O)N3CCN(C)CC3)c2)sc(C)c1C | -7%
CC1CC(C)CN(c2ccc(NS(=O)(=O)c3ccccc3)cc2C(=O)O)C1 (centres undefined) | 3%
CCCN(CCC)c1ccc(C2N=C(N)Nc3nc4ccccc4n32)cc1 (centres undefined) | -7%

(further entries)
SMILES | VDR inh
Cc1ccc2nc(-c3ccccc3C)oc(=O)c2c1 | -4%
Cc1nc2ccccc2n1CCN1CCOCC1 | 5%
CC(C)Cc1nnc(NC(=O)CCC(=O)N2CCN(c3ccc([N+](=O)[O-])cc3)CC2)s1 | 7%
CCCCn1nnnc1SCC(=O)N1CCCC1 | -2%
Cc1ccc(C(=O)Nc2ccc(-c3nc4ccccc4s3)c(O)c2)c(C)c1 | -5%
CSc1nc(SCC(=O)NCc2ccco2)c2c3c(sc2n1)CN(C)CC3 | 22%
CCCN(CCC)C(=O)CCS(=O)(=O)c1cccc2nsnc12 | -19%
COc1ccccc1CCNC(=O)Cc1c(C)c2c(cc(C)c3c(C)c(C)oc32)oc1=O | 10%
O=C(Nc1ncccc1O)c1cccc(S(=O)(=O)N2CCN(c3ccc(F)cc3)CC2)c1 | -2%
Cc1nnc(SCC(=O)Nc2ccccc2)n(N)c1=O | -8%
O=C(c1nc2ncccn2n1)N1CCc2ccccc2C1 | 9%
CN(C)C(=O)c1ccc(NC(=O)CN2CCc3cc4c(cc3C2)OCCCO4)cc1 | -3%
O=C(O)Cn1cc(/C=c2/sc3nc4ccccc4n3c2=O)c2ccccc21 | 6%
COc1ccccc1[C@@H]1C(c2ccc(F)cc2)=NN(c2ccc(Br)cc2)[C@H]1C(=O)N1CCOC1=O | 2%
NC(=O)NC(=O)CSc1nc(-c2ccccc2)c(-c2ccccc2)n1CC1CCCO1 (centres undefined) | 1%
Cc1cccc(C(=O)N/C(=C/c2ccco2)C(=O)N2CCCCCC2)c1 | 12%
COc1ccc2c(=O)c3ccccc3oc2c1 | -10%
COc1ccccc1CNS(=O)(=O)c1c(C)[nH]c(=O)[nH]c1=O | 2%
O=C(CN1CCN(c2ccccc2O)CC1)Nc1ccc([N+](=O)[O-])cc1Br | 0%
Cc1nc2nncn2c(NCc2ccc(Cl)cc2)c1C | 7%
O=C(NCc1ccccc1)c1ccc2c(c1)sc1nc(-c3ccc(F)cc3)cn12 | 12%
CN(C(=O)CCNC(=O)Cn1ccc2ccccc2c1=O)c1ccc(Br)cc1 | -15%
CCOC(=O)c1c(C)[nH]c(C(C)=NNC(=O)c2cccs2)c1C | -16%
Cc1noc(C)c1COc1ccccc1C(=O)Nc1cccc(S(=O)(=O)N(C)C)c1 | -6%
CC(=O)OC[C@@]1(O)C[C@@]23CC[C@@H]4c5ccoc5CC[C@@]4(C)[C@@H]2CCC1C3 | u

Given as a markdown table: four of the compounds above
| smiles | VDR inh |
| --- | --- |
| CCOC(=O)c1c(C)[nH]c(C(C)=NNC(=O)c2cccs2)c1C | -16% |
| CN(C)C(=O)c1ccc(NC(=O)CN2CCc3cc4c(cc3C2)OCCCO4)cc1 | -3% |
| Cc1cccc(C(=O)N/C(=C/c2ccco2)C(=O)N2CCCCCC2)c1 | 12% |
| O=C(NCc1ccccc1)c1ccc2c(c1)sc1nc(-c3ccc(F)cc3)cn12 | 12% |

A section taken from the entries so far, for reference:
SMILES | VDR inh
Cc1ccc2nc(-c3ccccc3C)oc(=O)c2c1 | -4%
Cc1nc2ccccc2n1CCN1CCOCC1 | 5%

Next records:
SMILES | VDR inh
Brc1ccccc1-c1nnc(CSc2nnnn2-c2ccccc2)o1 | 11%
COc1cccc(CNC(=O)CCC2CCCN(Cc3cc(Cl)ccc3O)C2)c1 (centres undefined) | 10%
CC1(C)Cc2c(cnn2-c2ccc(F)cc2)C(NC(=O)CCC(F)(F)F)C1 (centres undefined) | 0%
CCOC(=O)N1CCC(NC(=O)c2cc(C(=O)Nc3cccc(OC)c3)ccc2CO)CC1 | -6%
C1=C(N2CCOCC2)/C(=C/c2nc3ccccc3[nH]2)CC1 | -29%
CCN(CC)S(=O)(=O)c1ccc(/C=C/C(=O)OCC(=O)Nc2cccc3ccccc23)cc1 | -4%
COc1ccc(-c2c(C)nn3c(N4CCN(c5cc(Cl)ccc5C)CC4)cc(C)nc23)cc1OC | -1%
CCOC(=O)c1sc(NC(=O)c2ccc(C)o2)nc1C | 2%
CCC(CO)Oc1cc(NCc2ccccc2C)c2ncn(C(C)C)c2c1 (centres undefined) | -9%
CCCCCCNC(=O)CSc1nccn1Cc1ccccc1 | -5%
CC(C)Oc1ccccc1C1C=C(C(=O)O)Nc2ncnn21 (centres undefined) | -12%
Cc1c(NC(=O)CCSCCc2ccccn2)cccc1[N+](=O)[O-] | 0%
Cc1cc(/C=C2/C(=O)NN(c3ccccc3)C2=O)c(C)n1-c1cccc(O)c1 | 11%
COc1ccc(CC(=O)N(CC2CCCO2)c2nc3ccccc3s2)cc1 (centres undefined) | 6%
C/C(N)=C(/C#N)C(=O)COC(=O)c1cccc(C)c1O | 2%
CN(C)CCN(C(=O)C1CCN(S(=O)(=O)c2cccs2)CC1)c1nc2c(F)cccc2s1 | 7%
COC(=O)c1ccccc1NC(=O)COc1ccc(S(=O)(=O)NC(C)C)cc1 | -12%
Cc1nc(NCc2ccc3c(c2)OCO3)c2oc3ccccc3c2n1 | -1%
CCOC(=O)[C@@H]1[C@H]2COc3ccccc3[C@@H]2N2C(=O)N(c3ccc(OC)cc3)C(=O)[C@]12C | -5%

Screening results deposited in PubChem BioAssay by National Center for Advancing Translational Sciences (NCATS).
